# Arbovirus inh: antivirals against arbovirus infection, primary screen, cell-based, full library, 10K replicate subset; arbovirus infection cell-based antiviral screen; inhibition, % at 10 µM; 200,000 tested, 0.37% active;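 active = inhibition from about 30%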;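 note: bluetongue infection of BSR cells; cell survival read as ATP light after 72 h; 0% = infected wells without compound and 100% = uninfected wells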
# YopH PTP inh: YopH tyrosine phosphatase inhibitors, primary screen, biochemical, fluorescence Ex485/Em525 | inhibition, %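 (about 10 µM by stock and volumes)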 | AID 898, 2007 | YopH tyrosine phosphatase [Yersinia enterocolitica] | 140,000 tested, 0.16% active;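 active = inhibition of 50% or more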;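 note: controls were vehicle for no effect and minimum signal wells for full effect; inactives centre near -20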
# Arbovirus inh repeat: second read-out of Arbovirus inh, no call of its own (marks repeat the call); inhibition, %; measured here: 10K subset replicate screen; many hits read low in the repeat;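 first of two repeat runs on a subset; 0% = infected and 100% = uninfected wells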
# Starred values were filed as active, the others as inactive; nt = no result given.
SMILES,Arbovirus inh,YopH PTP inh,others
CC(C)Cn1c(=O)c(C2=NS(=O)(=O)c3ccccc3N2)c(O)c2ccccc21,nt,-6.5,
c1cncc(-c2nnc(SCCSc3nnc(-c4cccnc4)o3)o2)c1,nt,-0.7,
CSc1nnc2n(CCc3ccccc3)c(=O)c3c4c(sc3n12)CCCC4,nt,-21.2,
Cc1noc(C)c1CSc1nnc2c(C)cc3ccccc3n12,nt,-25.6,
CCN(CC)CCCN1C(=O)C(O)=C(C(=O)c2cccs2)C1c1ccccn1 (stereo not given),nt,-27.6,
CC(C)CC1N=C2c3ccccc3N=C(SCc3cc(=O)n4ccccc4n3)N2C1=O (stereo not given),nt,-4.4,
CCc1nnc2n1N=C(c1ccc(-c3ccc(Cl)cc3Cl)o1)CS2,nt,32.6,
CCOC(=O)c1cnc(Nc2nc3ccccc3o2)nc1CN1CCN(c2ccccc2)CC1,nt,23.8,
CCOc1ccc(/C(O)=C2\C(=O)C(=O)N(CCN(C)C)C2c2cc(OC)ccc2OC)cc1Cl (stereo not given),nt,-33.1,
Cc1cc(C)cc(NC(=O)NC2CCN(CC(=O)Nc3c(C)cc(C)cc3C)CC2)c1,nt,-24.2,
CCOc1ccc(C2/C(=C(/O)c3ccccc3)C(=O)C(=O)N2CCCN(C)C)cc1OC (stereo not given),nt,5.2,
CCOC(=O)C1=C(c2ccccc2)N2CCN=C2S1,nt,20.6,
CCOC(=O)c1ccc2[nH]c(C)c(CN3CCN(C)CC3)c(=O)c2c1,nt,-6.2,
Cn1c(=O)c2c(SCc3ccccn3)nc(-c3ccccc3)nc2n(C)c1=O,nt,-0.9,
CCC1Cc2c(nc3c4c(nc(N5CCOCC5)c(C#N)c24)NC(C)=N3)O1 (stereo not given),nt,40.2,
COc1nc(-c2ccc(Cl)cc2)ccc1-c1noc(-c2ccncc2)n1,nt,-10.5,
CCN1CCN(c2ncc(C(=O)N3CCN(c4ccccc4OC)CC3)c3ccccc23)CC1,nt,29.2,
Cn1nc(-c2ccc(C(=O)N3CCN(c4ccccc4)CC3)cc2)c2ccccc2c1=O,nt,15.7,
Clc1ccc(Cc2nn3c(-c4ccncc4)nnc3s2)cc1,nt,-10.7,
CCCn1c(=N)n(CCOCCOCCn2c(=N)n(CCC)c3ccccc32)c2ccccc21,nt,-27.8,

# In the list so far, these have a Cl atom:
SMILES,Arbovirus inh,YopH PTP inh,others
CCc1nnc2n1N=C(c1ccc(-c3ccc(Cl)cc3Cl)o1)CS2,nt,32.6,
CCOc1ccc(/C(O)=C2\C(=O)C(=O)N(CCN(C)C)C2c2cc(OC)ccc2OC)cc1Cl (stereo not given),nt,-33.1,
COc1nc(-c2ccc(Cl)cc2)ccc1-c1noc(-c2ccncc2)n1,nt,-10.5,
Clc1ccc(Cc2nn3c(-c4ccncc4)nnc3s2)cc1,nt,-10.7,

# Molecules above that have a thiophene ring, fused or not:
SMILES,Arbovirus inh,YopH PTP inh,others
CSc1nnc2n(CCc3ccccc3)c(=O)c3c4c(sc3n12)CCCC4,nt,-21.2,
CCN(CC)CCCN1C(=O)C(O)=C(C(=O)c2cccs2)C1c1ccccn1 (stereo not given),nt,-27.6,

# (listing goes on)
SMILES,Arbovirus inh,YopH PTP inh,others
COCCCNC(CC(=O)Nc1ccccc1C(=O)OC)C(=O)O (stereo not given),nt,-10.3,
COc1cc(OC)cc(-c2nnc(SCC(=O)Nc3cc(C)on3)o2)c1,nt,25.6,
Cc1nn(C(=O)CCCC(=O)n2nc(C)c(Cl)c2C)c(C)c1Cl,nt,-21.4,
O=C(NC1CC2CCCC(C1)N2C1CC1)NC12CC3CC(CC(C3)C1)C2 (stereo not given),nt,-0.8,
CC(C)N(Cc1nnc(-c2ccccc2Cl)o1)C(=O)c1cccc(C#N)c1,nt,-43.3,
COC(=O)c1cccc(Oc2nc(N3CCOCC3)nc(N3CCOCC3)n2)c1,nt,-22.8,
Clc1ccc(Br)cc1-c1nc(-c2cccnc2)no1,nt,14.2,
CCOc1ccccc1C(=O)Nc1ccc(-c2nnc(-c3ccc(C)cc3)o2)cc1,nt,-11.3,
Cc1nnc(-n2ncc(C#N)c2N)c2nn(-c3ccccc3F)c(C)c12,nt,-4.5,
CN(C)c1ccc(/C=C2\C(=O)N(c3ccc([N+](=O)[O-])cc3)N=C2N2CCOCC2)cc1,nt,-24.6,
CCOC(=O)Cn1c(=O)c2c(nc(Br)n2Cc2ccccc2)n(C)c1=O,nt,-24.8,
CN(C)CCCN1C(=O)C(=O)/C(=C(/O)c2ccc3c(c2)OCO3)C1c1ccco1 (stereo not given),nt,-17.6,
COc1cccc(Cn2c(NCc3ccccn3)nc3c2c(=O)n(C)c(=O)n3C)c1,nt,-5.5,
CN1CCN(c2ncnc3c2sc2nc(N4CCOCC4)c4c(c23)CCC4)CC1,nt,10.4,
CCOC(=O)CN1C(=O)C(Sc2nnc(-c3ccccc3OC)s2)CCc2ccccc21 (stereo not given),nt,13.8,
CCOC(=O)C1=C(O)/C(=C/c2ccc(C)o2)SC1=NC(=O)c1ccccc1C,nt,-32.3,
Cc1ccc(C(C(=O)NC(C)(C)C)N(Cc2ccco2)C(=O)CCC(=O)Nc2nccs2)cc1 (stereo not given),nt,-4.7,
COc1ccccc1C1c2c(oc3ccc(Cl)cc3c2=O)C(=O)N1c1cc(C)on1 (stereo not given),nt,-5.0,
O=C(CSc1nc2sc3c(c2c(=O)n1Cc1ccco1)CCC3)N1CCc2ccccc21,nt,13.8,
Cn1c(=O)c2c(nc(CN3CCOCC3)n2Cc2ccccc2)n(C)c1=O,nt,-12.9,
CC(C)n1c(SCC(=O)N2c3ccccc3CCc3ccccc32)nc2c1c(=O)n(C)c(=O)n2C,nt,21.0,
Cc1cc(C)c2cc(CN(CC3CCCO3)C(=O)NC3CCCCC3)c(=O)[nH]c2c1 (stereo not given),nt,-6.8,
CCOC(=O)c1c(NC(=O)c2csc(C)c2)sc(C(C)=O)c1C,nt,41.2,
COc1ccc(C(=O)CSc2nc3nc(C)cc(C)c3c(=O)[nH]2)cc1OC,nt,4.6,
O=C(CSc1nnc(-c2ccco2)n1-c1ccccc1)N1CCc2ccccc21,nt,-19.0,
O=C(O)CCC(=O)NC1CCCCC1NC(=O)CCC(=O)O (stereo not given),nt,-2.0,
COc1ccc(C)cc1NC(=O)c1nc2nc(C)cc(C)n2n1,nt,29.7,
CC1(C)Cc2c(C#N)c(SCC(=O)c3ccccc3)nc(N3CCCC3)c2CO1,nt,-6.1,
O=C(O)c1cn(C2CC2)c2cc(N3CCOCC3)c(F)cc2c1=O,nt,32.4,
COc1ccccc1/C=c1\sc2nc(-c3cccs3)nn2c1=O,nt,-12.9,
CCOc1ccc(-n2nc3c(-n4ncc(C#N)c4N)nnc(C)c3c2C)cc1,nt,2.9,
COc1ccc(C2C3=C(CCCC3=O)Nc3nc4ccccc4n32)cc1OC (stereo not given),nt,-30.1,
Cc1cc(N2CCC3(CC2)OCCO3)n2nc(C)c(-c3ccc(Cl)cc3)c2n1,nt,-26.4,
Cc1ccc2oc(C(=O)Nc3c(C)n(C)n(-c4ccccc4)c3=O)c(C)c2c1,nt,-25.4,
CCN1C(=O)/C(=C2/Sc3ccc(OC)cc3N2C)SC1=Nc1ccc(C(C)=O)cc1,nt,-16.7,
CCOC(=O)C1CCCN(C(=O)c2cc3c(=O)n4cccc(C)c4nc3n2C)C1 (stereo not given),nt,-18.7,
CN(Cc1ccccc1)c1nc2c(c(=O)[nH]c(=O)n2C)n1CCSc1ncccn1,nt,-23.9,
Cc1ccc2nc3c(cc(C#N)c(=N)n3CCCN3CCOCC3)c(=O)n2c1,nt,-2.1,
O=C(c1cc(-c2cccnc2)nc2ccc(Br)cc12)N1CCC2(CC1)OCCO2,nt,4.3,
Cn1c(=O)c2nc(Cl)n(Cc3ccc(Cl)cc3Cl)c2n(C)c1=O,nt,-32.1,
CC(CS(=O)(=O)c1ccc2ccccc2c1)N1CCN(C2CCCCC2)CC1 (stereo not given),nt,-23.6,
CCOC(=O)C(CC)Sc1nc(-c2ccc(OC)cc2)nc2c1c(=O)n(C)c(=O)n2C (stereo not given),nt,-1.7,
CCOC(=O)c1cnc(SCC(=O)Nc2ccccc2N2CCOCC2)nc1N,nt,-29.9,
Cc1cccc(NC(=O)c2c(O)c3cccc4c3n(c2=O)CC4)c1,nt,-7.5,
CC1C2=C(CCCC2=O)N(c2cccc3ccccc23)C2=C1C(=O)CCC2,nt,10.9,
CC(=O)c1c(C(C)=O)c(C)n(CCCCn2c(C)c(C(C)=O)c(C(C)=O)c2C)c1C,nt,2.8,
CN(C)CCNC(=O)Cc1c(C(=O)O)n(C)c2ccccc12,nt,8.7,
Cc1nc(NC2=NCN(CCc3ccccc3)CN2)nc2c(C)cccc12,nt,8.0,
Cc1oc(-c2ccc(F)cc2)cc1-c1nn2c(-c3ccco3)nnc2s1,nt,-22.1,
COc1ccc(-n2c(=O)c3c4c(sc3n3c(C)nnc23)COC(C(C)C)C4)cc1 (stereo not given),nt,-14.3,
Cc1cc(C)n(-c2nc3c(c(=O)n(Cc4ccc(Cl)c(Cl)c4)c(=O)n3C)n2C)n1,nt,-31.4,
O=C1c2ccc(-c3nc4ccccc4o3)cc2C(=O)N1Cc1ccccc1,nt,-39.3,
Cc1c(NC(=O)Cn2cnc3c(=O)n(C)c(=O)n(C)c32)cccc1-c1nc2ccccc2o1,nt,12.0,
COc1ccc(-n2c(=O)c3c4c(sc3n3c(C)nnc23)CC(C)CC4)cc1 (stereo not given),nt,-22.8,
CCOC(=O)C1CCN(C(=O)c2cn(-c3ccccc3)nc2-c2cccnc2)CC1,nt,-5.8,
Cc1nnc2sc(-c3ccc(NC(=O)c4ccc(-c5ccc(Br)cc5)o4)cc3)nn12,nt,-12.9,
CSC1=C(C#N)C(c2cccs2)CC(=O)N1C (stereo not given),nt,-43.3,
Cc1ccc(NC(=O)c2cnc3scc(C)n3c2=O)c(C)c1,4.6,nt,Arbovirus inh repeat=0.2
COc1ccc(-c2cn3c(C)c(C(=O)N4CCN(c5ccc(OC)cc5)CC4)sc3n2)cc1,2.4,nt,Arbovirus inh repeat=-4.0
Cn1c(=O)c2c(nc(N3CCN(Cc4ccccc4)CC3)n2CCSc2ncccn2)n(C)c1=O,-1.3,nt,Arbovirus inh repeat=2.8
# (cont.)
SMILES,Arbovirus inh,YopH PTP inh,others
CCOc1ccccc1NC(=O)c1c(NC(=O)CNCc2ccco2)sc2c1CCC2,10.1,nt,Arbovirus inh repeat=-5.8
CSc1nc(N2CCN(CCO)CC2)c2sc3nc(-c4ccco4)c4c(c3c2n1)CCC4,-8.6,nt,Arbovirus inh repeat=5.7
COc1cccc(C2C(C(=O)c3cccs3)=C(O)C(=O)N2CCCn2ccnc2)c1OC (stereo not given),0.2,nt,Arbovirus inh repeat=0.0
COc1ccc(NC(=O)/C(Cl)=C(/Cl)S(=O)Cc2ccccc2Cl)cn1 (stereo not given),-33.7,nt,
O=C(Cc1c(C(=O)O)[nH]c2ccccc12)NC1CCN(Cc2ccccc2)CC1,5.9,nt,Arbovirus inh repeat=4.9
CCOCCCNC(=S)NCCCNc1nc2c(C)c(C)ccc2cc1C#N,-23.6,nt,
CC1CCN(c2nc3c(c(=O)[nH]c(=O)n3C)n2CCSc2ncccn2)CC1,-0.2,nt,Arbovirus inh repeat=6.3
CC1CCc2c(sc3nc(SCc4nc(-c5ccccc5)no4)n(C)c(=O)c23)C1 (stereo not given),-0.6,nt,Arbovirus inh repeat=3.4
COc1cccc(C2C(C(=O)c3ccco3)=C(O)C(=O)N2CCCN2CCOCC2)c1OC (stereo not given),-1.2,nt,Arbovirus inh repeat=-0.4
CCN1CCN(c2ncnc3c2sc2nc(N4CCOCC4)c4c(c23)CCC4)CC1,9.9,nt,Arbovirus inh repeat=0.6
C=CCn1c(C)nc2c(c1=O)c1nc3ccccc3nc1n2-c1ccc(C)cc1,2.3,nt,Arbovirus inh repeat=4.0
O=C(CSc1ccc2nnc(-c3ccc(Cl)cc3)n2n1)N1CCN(c2ccccc2)CC1,-3.3,nt,Arbovirus inh repeat=1.4

# Looked up by structure from above, 2 records:
SMILES,Arbovirus inh,YopH PTP inh,others
C=CCn1c(C)nc2c(c1=O)c1nc3ccccc3nc1n2-c1ccc(C)cc1,2.3,nt,Arbovirus inh repeat=4.0
O=C(Cc1c(C(=O)O)[nH]c2ccccc12)NC1CCN(Cc2ccccc2)CC1,5.9,nt,Arbovirus inh repeat=4.9

# Screening results from PubChem.

# This is a subset, so the mix of outcomes need not match the whole.
